High-throughput results deposited in PubChem by ICCB-Longwood Screening Facility, Harvard Medical School.
PV pol inh = poliovirus RdRp elongation inhibitors, primary screen, biochemical, fluorescence polarization, total intensity | Genome polyprotein (Poliovirus type 1 (strain Mahoney)), P03300 | poliovirus polymerase elongation; active compounds read low | % elongation, % (compound at 16.7 µg/mL) | 150,000 tested, 0.66% active; in the data active = % elongation below about 90%; note: some results filed as inactive read as strong as hits
Target sequence (P03300 1749-2209 limits assumed): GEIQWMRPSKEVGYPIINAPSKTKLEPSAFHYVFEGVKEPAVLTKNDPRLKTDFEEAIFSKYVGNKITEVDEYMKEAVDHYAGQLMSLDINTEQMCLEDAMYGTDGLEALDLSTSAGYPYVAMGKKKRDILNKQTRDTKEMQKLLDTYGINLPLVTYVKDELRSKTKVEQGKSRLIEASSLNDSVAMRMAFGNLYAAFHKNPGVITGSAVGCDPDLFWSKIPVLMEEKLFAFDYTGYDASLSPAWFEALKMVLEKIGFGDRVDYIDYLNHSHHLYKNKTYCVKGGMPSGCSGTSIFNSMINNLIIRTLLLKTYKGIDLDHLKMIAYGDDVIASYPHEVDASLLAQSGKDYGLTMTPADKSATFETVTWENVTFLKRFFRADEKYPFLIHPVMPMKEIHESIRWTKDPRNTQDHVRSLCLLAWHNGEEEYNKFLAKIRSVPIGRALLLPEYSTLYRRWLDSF
PV pol inh intensity = second read-out of PV pol inh, no call of its own (marks repeat the call); % elongation; measured here: total intensity read-out; formula for this scale not given here;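 total fluorescence in place of polarization; lower means less elongation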
* hit, by the source's call. A portion of the library; count on the stated rates, not on these rows.

Values run as follows: PV pol inh	PV pol inh intensity
- O=C(Cn1cc(C(=O)c2ccncc2)c(=O)c2cc(F)ccc21)Nc1ccc(Cl)cc1
  112	116
- CCc1cccc(C)c1NC(=O)C(NS(=O)(=O)c1ccc2c(c1)CCC(=O)N2)c1ccccc1 (stereo unspecified)
  105	107
- Cc1cc(C)c(CN2C(=O)c3ccccc3S(=O)(=O)c3ccc(C(=O)OCC4CCCO4)cc32)c(C)c1 (stereo unspecified)
  105	111
- O=C(NCCCN1CCN(c2ccc(F)cc2)CC1)Nc1ccccc1Cl
  101	101
- CCOc1ccc(C(=O)c2cn(CC(=O)Nc3ccc4c(c3)OCCO4)c3ccc(F)cc3c2=O)cc1
  103	108
- COc1ccccc1NC(=O)c1cc2cc3ccc(OC)c(Cl)c3nc2s1
  97	103
- Cc1ccc(N(C)C(=O)C2CCCN(c3ncnc4c3nc3n4CCCCC3)C2)cc1C (stereo unspecified)
  99	96
- CCOCC(=O)Nc1ccc(-c2cn3c(C)csc3n2)cc1
  114	114
- Cc1ccc(CNC(=O)c2nc(SCc3ccc(C)cc3)ncc2Cl)cc1
  100	94
- CCN(CCCNC(=O)CN1N=C(c2ccc(C)cc2)CCC1=O)c1ccccc1
  111	111
- COc1ccccc1CNS(=O)(=O)c1c(C)nc2sc(C)cn2c1=O
  108	115
- COc1ccccc1NC(=O)C(=O)c1cc(C)n(-c2cc(C)cc(C)c2)c1C
  111	104
- Cn1c(=O)c2c(-c3ccc(Cl)cc3)n(CCc3ccccc3)cc2n(C)c1=O
  105	103
- Fc1ccc(-c2cn3cc(Cc4ccccc4Cl)sc3n2)cc1
  102	104
- O=C(CSc1cn(CC(=O)N2CCCCC2)c2ccccc12)Nc1ccccc1F
  118	120
- COc1ccc(NC(=O)C2Cc3ccccc3N2C(=O)c2ccccc2)c(OC)c1 (stereo unspecified)
  100	102
- COc1ccc(S(=O)(=O)NCCS(=O)(=O)N2CCN(c3ccccc3)CC2)cc1C
  106	101
- CCN1CCN(c2ncnc3c2cnn3-c2cccc(C)c2)CC1
  99	90
- COc1cccc(C(=O)Nc2ccccc2-c2nnc(-c3ccc(C(C)(C)C)cc3)o2)c1
  109	111
- COCCn1c(=NC(=O)c2ccc3c(c2)OCCO3)sc2cc(NC(C)=O)ccc21
  111	116

One compound at a time, from the list above. Order of values: PV pol inh | PV pol inh intensity
`COc1ccc(S(=O)(=O)NCCS(=O)(=O)N2CCN(c3ccccc3)CC2)cc1C` in the list: 106 | 101
`Cn1c(=O)c2c(-c3ccc(Cl)cc3)n(CCc3ccccc3)cc2n(C)c1=O` in the list: 105 | 103

The listing picks up with the two entries that preceded the break.
Values run as follows: PV pol inh	PV pol inh intensity
- COc1cccc(C(=O)Nc2ccccc2-c2nnc(-c3ccc(C(C)(C)C)cc3)o2)c1
  109	111
- COCCn1c(=NC(=O)c2ccc3c(c2)OCCO3)sc2cc(NC(C)=O)ccc21
  111	116
- CC(C)(C)OC(=O)N1CCC(c2c(C(=O)Nc3ccc4c(c3)OCCO4)cnn2-c2ccc(Cl)cc2)CC1
  110	112
- CCn1c2ccccc2c2cc(NC(=O)COc3ccc(C)cc3C)ccc21
  106	113
- CCOc1ccc(C2C(=O)N(C3CCCCCC3)CC(=O)N2CCc2ccc(Cl)cc2)cc1OC (stereo unspecified)
  112	111
- CC1CN(C(=O)Nc2ccc(C(=O)NCCc3ccccc3)cc2)c2ccccc2S1 (stereo unspecified)
  105	102
- CCCC12CN3CC(C)(CN(C1)C3c1ccc(CC)cc1)C2=O (stereo unspecified)
  111	107
- COc1ccc(-c2nc(CNS(=O)(=O)c3ccc(F)cc3)cs2)cc1
  112	107
- COc1ccc(CCN2C(=O)c3[nH]nc(-c4ccccc4O)c3C2c2ccc(OC)cc2)cc1 (stereo unspecified)
  105	106
- Fc1ccc(-n2ncc3c(NCCCN4CCOCC4)ncnc32)cc1
  104	111
- COc1cc(OC)c(NC(=O)Nc2nnc(N(C)C3CCCCC3)s2)cc1Cl
  111	103
- CCc1ccc(NC(=O)CC2C(=O)OCCN2CC)cc1 (stereo unspecified)
  101	101
- CCc1ccccc1-n1cnc2cc(C(=O)NC3CCCCCC3)ccc21
  110	107
- C=Cc1ccc(CN2C(=O)c3ccccc3Sc3ccc(C(=O)OCc4ccco4)cc32)cc1
  108	115
- CC1CCCCN1S(=O)(=O)c1cc2c3c(c1)CC(=O)N3CCC2 (stereo unspecified)
  113	116
- Cc1cc(C)c(OCC(=O)N(Cc2ccco2)Cc2ccco2)c(C)c1
  112	113
- Cc1ccc(-c2nn3c(=O)cc(CN4CCN(C(=O)COc5ccc(C)c(C)c5)CC4)nc3s2)cc1
  109	108
- CCCOc1ccc(C2C(=O)N(C3CCC(C)CC3)CC(=O)N2CCc2ccccc2)cc1OC (stereo unspecified)
  103	101
- COc1cccc(CNC(=O)Nc2cn(CC(C)C)c(=O)c3ccccc23)c1
  31*	42*
- CC(C)Cc1ccc(S(=O)(=O)Nc2ccc3[nH]c(=O)[nH]c3c2)cc1
  109	108
- CN(C)c1ccc(NC(=O)CSc2nc(-c3ccco3)cc(C(F)(F)F)n2)cc1
  108	111
- CC(=O)Nc1c(C(=O)Nc2cccc(C)c2)nnn1-c1ccc(C)cc1
  109	108

Pulled by structure from above, 6 records:
Values run as follows: PV pol inh	PV pol inh intensity
- CCN1CCN(c2ncnc3c2cnn3-c2cccc(C)c2)CC1
  99	90
- Fc1ccc(-n2ncc3c(NCCCN4CCOCC4)ncnc32)cc1
  104	111
- C=Cc1ccc(CN2C(=O)c3ccccc3Sc3ccc(C(=O)OCc4ccco4)cc32)cc1
  108	115
- CN(C)c1ccc(NC(=O)CSc2nc(-c3ccco3)cc(C(F)(F)F)n2)cc1
  108	111
- CCCOc1ccc(C2C(=O)N(C3CCC(C)CC3)CC(=O)N2CCc2ccccc2)cc1OC (stereo unspecified)
  103	101
- CC1CN(C(=O)Nc2ccc(C(=O)NCCc3ccccc3)cc2)c2ccccc2S1 (stereo unspecified)
  105	102

The list goes on.
Values run as follows: PV pol inh	PV pol inh intensity
- Clc1ccc(OCc2nc(-c3ccc(-n4cccc4)cc3)no2)cc1
  101	104
- Cc1cccc(NC(=O)c2cc(S(=O)(=O)N3CCC4(CC3)OCCO4)ccc2F)c1
  111	106
- CCCCCn1c(NCc2ccc(OC)cc2)nc2ccccc21
  100	96
- Cc1ccc(-c2nc3c(c(SCC(=O)N(C)c4ccccc4)n2)Cc2c(CO)cnc(C)c2O3)cc1
  103	106
- COc1ccc(-c2cc(C(F)(F)F)nc(SCC(=O)NCCc3ccccc3)n2)cc1
  104	98
- CCc1ccc(CNC(=O)Cn2nc(C)c3c(C)n(-c4ccc(C)cc4)nc3c2=O)cc1
  113	112
- Cn1cnc(S(=O)(=O)N2CCC(C(=O)Nc3ccc(C#N)cc3)CC2)c1
  109	110
- COc1ccc(-c2noc(-c3ccc(N4CCN(c5ccccc5)CC4)c([N+](=O)[O-])c3)n2)cc1OC
  105	109
- Cc1cccc2c(=O)cc(CSc3ccccc3NC(=O)c3cccc(Cl)c3)[nH]c12
  106	99
- O=C(NCC(c1ccco1)S(=O)(=O)c1cccs1)c1ccc(C(F)(F)F)cc1 (stereo unspecified)
  111	107
- O=C(Cn1ncc2c3ccccc3n(Cc3ccccc3)c2c1=O)NCc1ccccn1
  112	116
- CCOc1ccc(-c2nnc(SCC(=O)Nc3ccc(C)cc3Cl)o2)cc1
  109	102
- Cc1ccc2ncc3c(-c4ccc(F)cc4)nn(-c4cccc(F)c4)c3c2c1
  103	100
- N#Cc1ccc(CN2C(=O)c3ccccc3Sc3ccc(C(=O)OCc4ccco4)cc32)cc1
  110	98
- COc1ccc(-c2noc(-c3ccc(NC4CCCC4)c([N+](=O)[O-])c3)n2)cc1OC
  79*	83*
- CCOC(=O)c1ccc(NC(=O)C2=C(C)Nc3nc(SCc4ccc(Cl)cc4)nn3C2c2ccc(C)cc2)cc1 (stereo unspecified)
  100	103
- O=C(COc1ccc(Cl)cc1)NCC(c1ccco1)S(=O)(=O)c1ccc(F)cc1 (stereo unspecified)
  108	114
- CCn1nc(-c2ccccc2)c(-c2ccccc2)c(C(=O)Nc2nc(C)c(C(=O)N(C)C)s2)c1=O
  110	115
- COc1cc(NC(=O)CC2C(=O)N(c3ccccc3)C(=O)N2Cc2ccc(F)cc2)cc(OC)c1 (stereo unspecified)
  108	116
- Cc1cc(N2CCN(C)CC2)nc2ccc(NC(=O)Nc3ccccc3)cc12
  103	103
- Cc1ccc2c(=O)cc(C(=O)Nc3cccc(Cl)c3C)oc2c1C
  110	109
- COc1cc(NC(=O)c2cc(C)nc3c2c(C)nn3-c2ccccc2Cl)cc(OC)c1
  114	114
- COc1ccc(CCn2c(=O)[nH]c3cc(C(=O)N4CCN(c5ccccc5)CC4)ccc3c2=O)cc1OC
  115	112
- CCc1ccccc1NC(=O)CN1C(=O)c2cccnc2Oc2ccc(Cl)cc21
  105	99
- COc1cccc(NC(=O)CCNS(=O)(=O)c2ccc3c(c2)CCCC(=O)N3)c1
  104	109
- CC(=O)Nc1ccccc1-c1nc2ccccc2n(C(C)C(=O)Nc2cccc(C)c2C)c1=O (stereo unspecified)
  105	103
- CCOC(=O)C(C)Sc1nnc2cc(C)c3ccccc3n12 (stereo unspecified)
  104	101
- CC(C)c1ccc(-c2nnc3n(CCc4ccccc4)c(=O)c4ccccc4n23)cc1
  99	103
- CCc1ccc(-c2nc(CS(=O)CC(=O)NCc3ccc(F)cc3)c(C)o2)cc1 (stereo unspecified)
  103	102
- COc1ccc(CNC(=O)c2cc3c(=O)n4cccc(C)c4nc3s2)cc1
  103	102
- CCc1cccc(C)c1NC(=O)Cn1c(=O)n(-c2ccc(C)cc2)c(=O)c2c1cnn2C
  107	106
- COc1ccc(C)cc1NC(=O)c1cc(S(=O)(=O)N2CCCCC2)c[nH]1
  111	105
- COc1ccc(NC(=O)CN2C(=O)COc3ccc(S(=O)(=O)Nc4ccccc4)cc32)cc1OC
  101	106
- COc1ccc(-c2noc(CN(C(=O)C(C)Oc3ccc(C)cc3)C(C)C)n2)cc1 (stereo unspecified)
  109	115
- Cc1ccc(CNc2nc3ccc(Cl)cc3n3cnnc23)cc1
  110	110
- CCCCNC(=O)c1ccc2c(c1)ncn2-c1cc(OC)ccc1OC
  101	87
- CCOC(=O)C1CCCN(c2c(C(=O)c3ccc(C)cc3)cnc3ccc(OCC)cc23)C1 (stereo unspecified)
  99	98
- COc1ccc(C2CC(=O)Nc3c2c(=O)[nH]c2nc4ccccc4n32)cc1OC (stereo unspecified)
  103	97
- Cc1ccc(OCC(=O)N(Cc2ccc(Cl)cc2)Cc2ccco2)cc1C
  107	111
- Cc1[nH]c2ccc(F)cc2c1CCNC(=O)c1cc2cc(Cl)ccc2oc1=O
  107	109

In a second layout: results already given.
| Structure | PV pol inh | PV pol inh intensity |
| --- | --- | --- |
| CC(C)c1ccc(-c2nnc3n(CCc4ccccc4)c(=O)c4ccccc4n23)cc1 | 99 | 103 |
| CCc1ccc(-c2nc(CS(=O)CC(=O)NCc3ccc(F)cc3)c(C)o2)cc1 (stereo unspecified) | 103 | 102 |
| COc1ccc(CNC(=O)c2cc3c(=O)n4cccc(C)c4nc3s2)cc1 | 103 | 102 |
| CCc1cccc(C)c1NC(=O)Cn1c(=O)n(-c2ccc(C)cc2)c(=O)c2c1cnn2C | 107 | 106 |
| COc1ccc(C)cc1NC(=O)c1cc(S(=O)(=O)N2CCCCC2)c[nH]1 | 111 | 105 |
| COc1ccc(NC(=O)CN2C(=O)COc3ccc(S(=O)(=O)Nc4ccccc4)cc32)cc1OC | 101 | 106 |
| COc1ccc(-c2noc(CN(C(=O)C(C)Oc3ccc(C)cc3)C(C)C)n2)cc1 (stereo unspecified) | 109 | 115 |

(listing goes on)
Values run as follows: PV pol inh	PV pol inh intensity
- CCc1c(C)sc2c1CCN(Cc1cccc(F)c1)C2c1ccccc1 (stereo unspecified)
  103	109
- COc1ccc(CNC(=O)Cn2c(=O)nc(-c3ccccc3F)c3cc(Cl)ccc32)cc1
  103	105
- COc1ccccc1CNS(=O)(=O)c1cnc(N)nc1
  102	107
- COc1cccc(C2=CC(c3cc(Br)ccc3F)n3nnnc3N2)c1 (stereo unspecified)
  105	108
- Cc1cccc(N2CCN(C(=O)c3cnn(-c4ccc(F)cc4F)c3C3CCN(C(=O)OC(C)(C)C)CC3)CC2)c1C
  114	114
- Cc1cc(F)ccc1S(=O)(=O)Nc1cc2c(C(=O)O)c(C)oc2c2ccccc12
  95	110
- CCc1cccc(NS(=O)(=O)c2ccc3c(c2)N(CC(=O)OC)C(=O)CS3)c1
  114	107
- CCOc1ccc(CNC(=O)c2cc3ccccn3n2)cc1
  105	113
- CCN(CC)c1ccc(C(=O)NCc2ccc3c(c2)CCN3C(=O)c2ccccc2)cc1
  107	111
- COc1ccc(N(C)C(=O)c2cc3c(s2)-c2c(C)cccc2OC3)c(OC)c1
  106	113
- CCCn1c(=N)c(C(=O)NCc2ccccc2)cc2c(=O)n3cccc(C)c3nc21
  103	104
- O=C(Nc1ccc2nc(SCC(=O)N3CCOCC3)sc2c1)c1cccc(Br)c1
  111	109
- COc1ccccc1OCC(=O)Nc1nc(-c2ccc(Br)cc2)ns1
  109	109
- CN(C(=O)c1nn(C)c2c1CS(=O)(=O)c1ccccc1-2)c1cccc(Cl)c1
  103	108
- CC(NC(=O)c1ccc2c(c1)CCN2S(=O)(=O)c1ccc(Cl)cc1)c1ccccc1 (stereo unspecified)
  111	109
- Cc1cccc(NC(=O)c2ccc(F)c(S(=O)(=O)N3CCC4(CC3)OCCO4)c2)c1
  111	108
- Cc1cc(C)cc(NC(=O)CSc2nc3nccnc3c(=O)n2CCc2c[nH]c3ccccc23)c1
  107	113
- COc1ccc(OC)c(S(=O)(=O)Nc2cc3c(C(C)=O)c(C)oc3c3ccccc23)c1
  100	106
- CN(Cc1ccccc1)C(C(=O)NC1CCCCC1)c1ccc(Cl)cc1 (stereo unspecified)
  104	103
- Cc1ccc(NC(=O)CCc2nc(-c3ccccc3F)no2)c(C)c1
  107	107
- CCc1cccc(C)c1NC(=O)c1cc(S(=O)(=O)N2CCN(c3ccccc3)CC2)ccc1F
  115	112
